Source: PubChem BioAssay (National Center for Advancing Translational Sciences (NCATS))
Anthrax LT inh = qHTS Assay for Anthrax Lethal Toxin Internalization | Cells, anthrax lethal toxin internalization, FRET ratio (460/530) | Potency, µM (titrated, usually from 40 µM), inactives show top-dose activity change, negative = inhibition, actives largely listed as inhibitors | actives 0.67% (n = 70,000); active = well fitted falling ratio curve with the 530 nm signal flat; inconclusive = other ratio curves, or a change in one channel alone; inactive = flat curves in the ratio and both channels; the % refers to the ratio; further: on the % scale 0 is the no-effect control and ±100 the full control effect; nearly all actives have a fitted effect of over 50% in size; tested in ME-180 cells; beta-lactamase reporter
Prx2 Sm inh = Schistosoma Mansoni Peroxiredoxins (Prx2). Schistosoma mansoni peroxiredoxin 2 (Prx2). S. mansoni Prx2 activity coupled to TGR/GSH (TGR is thioredoxin glutathione reductase), NADPH fluorescence loss, qHTS; some inactives read as strong as hits. Potency, µM. actives 0.07% (n = 65,000). AID 448, 2006; active means full or partial inhibition curve with a strong effect at the top dose; inconclusive means weaker partial or single-point curve; inactive means no accepted curve; further: series up to 57 µM; many of its hits are not listed in these tables
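Enzyme mix: 100 uM NADPH, 25 nM TGR, 700 uM GSH, 50 nM Prx2 in 100 mM phosphate pH 7.4, 10 mM EDTA, 0.01% Tween-20. 15 min RT with compound; NADPH/GSH added, H2O2 starts reaction; NADPH fluorescence read 8 min.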
* hit, by the source's call; ? = inconclusive; . = not tested or not shown; & = joins results of further samples; [ ] = dose if it differs, or a comment. Potency means the concentration at half of the fitted maximal effect. These rows are one share of the data (hit frequency here may not be typical).

SMILES	Anthrax LT inh	Prx2 Sm inh
CCN(CC)CCn1c2ccccc2c2nc(C)sc21	1.5%	>57
Cc1cc(=O)[nH]c(SCC(=O)Nc2cccc(C(F)(F)F)c2)n1	14.4%	>57
COc1ccc(C(=O)NCc2cccnc2)cc1S(=O)(=O)N1CCOCC1	-12.5%	>57
CCCCOc1ccc(-c2nc(-c3cccnc3)no2)cc1	-18.7%	.
CCCC1(c2ccccc2)NC(=O)N(CC(=O)c2[nH]c(C)c(C(=O)OCC)c2C)C1=O (stereo not given)	-14.9%	>57
Cc1c(NC(C)C)c(=O)n(-c2ccccc2)n1C	-5.6%[3.58 µM]	>57
CC(C)NC[C@H](O)c1ccc(NS(C)(=O)=O)cc1	-18.8%	>57&>57&>57
c1cncc(-c2nnc(SCc3nc4ccccc4[nH]3)o2)c1	?	>57
O=c1[nH]c2ccc(Br)cc2c(-c2ccccc2)c1N1CCOCC1	?	>57
O=C(O)c1c[nH]c2ccc(S(=O)(=O)N3CCN(c4ccc(F)cc4)CC3)cc2c1=O	?	>57
Cc1ccc(N2C(=O)c3oc4ccccc4c(=O)c3C2c2cccc(O)c2)nc1 (stereo not given)	?	>57
Cc1c(-n2cc(C(=O)O)c(=O)c3cc(F)c(N4CCCC4)c(F)c32)c(=O)n(-c2ccccc2)n1C	-13.7%	>57
Cc1cc(C(=O)COC(=O)CCCN2C(=O)c3ccccc3C2=O)c(C)n1C	23.8%	>57
Cc1noc(C)c1-c1cncnc1NC1CC1	0.8%	>57
CCOC(=O)c1ccccc1NC(=O)C1COc2ccccc2O1 (stereo not given)	?	.
O=C(NCc1ccccc1)NC1(C(=O)N2CCN(c3ccccc3)CC2)CCCCC1	7.6%	>57
COc1ccc(Nc2nnc(Cc3ccc(Cl)cc3)c(=O)[nH]2)c(OC)c1	-6.4%	>57
COc1ccc(NC(=O)Cc2ccc(Cl)cc2)cc1NC(=O)c1ccco1	-2.9%	>57
O=C1CCCC2=C1C(c1ccccc1O)C1=C(CCCC1=O)O2	15.0%	>57
COC(=O)C1=C(C)N(C2CCCC2)C(=O)C1(NC(C)=O)C(F)(F)F (stereo not given)	?	>57
CCS(=O)(=O)N1CCC(C(=O)NCCCN2CCC(Cc3ccccc3)CC2)CC1	16.1%	>57
CCOc1cc2c(cc1C(C)(C)C)NC(=O)CS2	-40.9%	>57
CC(C)CCNC(=O)CCCn1c(=O)[nH]c2ccc(Br)cc2c1=O	0.0%	>57
CC(C)n1c(-c2ccc(N(C)C)cc2)nc2ccccc21	?	>57
O=C(Cn1c(NCCO)nc2ccccc21)c1ccco1	?	>57
COCCn1nnnc1C(c1cccc(OC)c1OC)N1CCN(C2CCCCC2)CC1 (stereo not given)	4.3%	>57
O=C(O)Cc1coc(-c2ccc(F)cc2)n1	?	>57
COc1cccc(CN2CCN(C(=O)c3ccco3)CC2)c1OC	2.3%	.
Cc1oc(-c2ccccc2)cc1C(=O)Nc1cccc(C(=O)O)c1	-2.4%	>57
CC(=O)Nc1ccc(S(=O)(=O)N2CCN(C34CC5CC(CC(C5)C3)C4)CC2)cc1	-0.6%	>57
c1ccc(OCc2nn3c(Cn4nnc5ccccc54)nnc3s2)cc1	?	>57
c1ccc(N2CCN(c3nnc(Cc4cccnc4)c4ccccc34)CC2)nc1	-6.2%	>57
CCOc1ccc(C(=O)N2CCc3cc(OC)c(OC)cc3C2)cc1OCC	-21.5%	>57
CCNc1nc(CC)nc2c1oc1ccccc12	5.5%	>57
O=C(CSc1ncnc2ccccc12)Nc1ccc2c(c1)OCO2	-20.4%	>57
CCOC(=O)c1cc2c(ccn2C)n1CC(=O)N1CCN(c2ccccc2)CC1	10.1%	>57

Taken from the results shown for reference:
SMILES	Anthrax LT inh	Prx2 Sm inh
O=C(CSc1ncnc2ccccc12)Nc1ccc2c(c1)OCO2	-20.4%	>57
CCOC(=O)c1cc2c(ccn2C)n1CC(=O)N1CCN(c2ccccc2)CC1	10.1%	>57

Carrying on:
SMILES	Anthrax LT inh	Prx2 Sm inh
CCCN(C/C=C\I)[C@@H]1CCc2ccc(O)cc2C1	?	>57
COc1ccccc1-n1cnc2cc(C(=O)NCC3CCCO3)ccc21 (stereo not given)	11.1%	>57
CC(C)OC(=O)c1c(F)c(F)c(N2CCOCC2)c(F)c1F	15.5%	>57
COc1ccc(OCc2nnc(SC3CCOC3=O)n2-c2ccccc2)cc1 (stereo not given)	11.0%	>57
C=CCN(CC(=O)NCc1ccccc1)C(=O)c1csnn1	0.2%	>57
O=C(c1ccco1)N1CCN(C(=O)C2CCN(S(=O)(=O)Cc3ccccc3)CC2)CC1	?	>57
c1ccc2c(c1)nc(Nc1ccc3c(c1)OCO3)c1nnnn12	-2.0%	>57
CCOC(=O)CN1CC23C=CC(O2)C(C(=O)NCCc2ccccc2)C3C1=O (stereo not given)	15.8%	.
CCSc1nnc(N)s1	-6.5%	.
Cc1c(Cl)cccc1NC(=O)CN1CCN(CCO)CC1	3.1%	>57
Cc1ccccc1Cn1ccc(NC(=O)c2nc3ncccn3n2)n1	.	>57
COc1ccc(C(Cl)=C(c2ccc(OC)cc2)c2ccc(OC)cc2)cc1	?	>11.4
O=C(NCCCN1CCCCCC1)c1ccc(CS(=O)(=O)Cc2ccccc2F)o1	7.7%	>57
CCOc1ccc(S(=O)(=O)N2CCN(S(=O)(=O)c3ccc(OCC)cc3)C(C)C2)cc1 (stereo not given)	0.3%	.
COc1ccc(Oc2ncc3nc(-c4cc(F)cc(F)c4)c(=O)n(C4CC4)c3n2)cc1	?	>57
CCOc1ccccc1Oc1cn[nH]c1-c1ccc(OC)cc1O	-27.9%	>57
CCC(=O)/C=C/C1C(C)=CCCC1(C)C (stereo not given)	11.0%	.
Nc1c(C(=O)NCCN2CCOCC2)c2nc3ccccc3nc2n1Cc1ccco1	10.9%	>57
CCOC(=O)c1nn(-c2c(C)n(C)n(-c3ccccc3)c2=O)cc1O	-5.5%	>57
O=C(O)CN(Cc1ccccc1)S(=O)(=O)c1ccc(F)cc1	4.5%	>57
CC(=O)OCCN(Cc1ccccc1)Cc1ccc2c(c1)OCO2	-16.6%	>57
Cc1ccccc1-c1coc2cc(O)ccc2c1=O	?	>57
Cc1ccc(N)c(C)c1	3.3%	.
O=C1Cn2c(nc3ccccc32)-c2ccccc2N1	-0.7%	>57

Random excerpt: 6 entries already listed.
SMILES	Anthrax LT inh	Prx2 Sm inh
O=C1Cn2c(nc3ccccc32)-c2ccccc2N1	-0.7%	>57
CCOc1ccccc1Oc1cn[nH]c1-c1ccc(OC)cc1O	-27.9%	>57
CC(=O)OCCN(Cc1ccccc1)Cc1ccc2c(c1)OCO2	-16.6%	>57
CCOc1ccc(S(=O)(=O)N2CCN(S(=O)(=O)c3ccc(OCC)cc3)C(C)C2)cc1 (stereo not given)	0.3%	.
COc1ccc(Oc2ncc3nc(-c4cc(F)cc(F)c4)c(=O)n(C4CC4)c3n2)cc1	?	>57
Nc1c(C(=O)NCCN2CCOCC2)c2nc3ccccc3nc2n1Cc1ccco1	10.9%	>57

The results go on.
SMILES	Anthrax LT inh	Prx2 Sm inh
COc1ccc(N(C)S(=O)(=O)c2cccc(C(=O)Nc3ccc(-n4cnnn4)cc3)c2)cc1	?	>57
Cc1ccccc1Cn1c(=O)n(CCCC(=O)NCc2ccco2)c(=O)c2ccccc21	0.2%	>57
Cc1onc(-c2ccccc2Cl)c1C(=O)NCc1cccs1	-0.6%	>57
O=S(=O)(Cc1ccc(Cl)cc1)Nc1ccc2c(c1)OCO2	-6.4%	>57
CCc1nc(SCc2ccc(C(=O)OC)o2)c2c(=O)n(C)c(=O)n(C)c2n1	0.8%	>57
Cc1occc1-c1nnc(SCC(=O)NCCc2ccccc2)n1Cc1ccccc1	-11.2%	>57
C=C(C)C(O)/C=C/c1ccccc1OC (stereo not given)	-7.5%[8 µM]	.
CC(NC(=O)C1CC2CCCC(C1)C2=O)c1ccccc1 (stereo not given)	-4.1%	>57
C=C(C)COc1ccc(-c2[nH]ncc2-c2ccccc2OC)c(O)c1	?	>57
C[C@H]1C(=O)O[C@@H]2CCN3CC=C(COC(=O)[C@@](C)(O)[C@@]1(C)O)[C@H]23	-6.7%[3.58 µM]	>57
COC(=O)c1nnn(-c2nonc2N)c1CSc1ccccn1	-4.8%	>57
Nc1nc(Sc2ccc([N+](=O)[O-])c3nonc23)c2[nH]cnc2n1	?	?
CC(=O)N1CCC2(CC1)CCN(c1ccccn1)CC2	-8.4%	>57
O=C(c1coc2ccccc2c1=O)N1CCN(c2cccc(C(F)(F)F)c2)CC1	?	>57
O=C(Nc1ccc(NC(=O)C2CC2)nc1)c1cccs1	-2.6%	>57
CN=C(Nc1cc(C)nn1-c1ccccc1)c1ccccc1	1.4%	>57
O=C(CSc1nc(-c2ccccc2Cl)ns1)NCc1ccco1	?	>57
Cc1cc(C(F)F)n2nc(C(=O)O)nc2n1	0.1%	>57
Cc1nnc(SCCN2C(=O)c3ccccc3C2=O)[nH]c1=O	?	>57
Cc1ccc2cc(CN(Cc3ccco3)C(=O)NCc3ccccc3)c(=O)[nH]c2c1C	-29.7%	>57
CCc1nn(CC(=O)NCCCN(Cc2ccccc2)C(C)C)c(=O)c2cc3sccc3n12	7.3%	>57
O=C(Cn1ccc2ccccc2c1=O)Nc1ccc2c(c1)OCO2	0.0%	>57
C=CCN1C(=O)C(O)=C(C(C)=O)C1c1ccccc1F (stereo not given)	9.5%	>57
CC1CCC(N2CCN(c3ncccn3)CC2)CC1 (stereo not given)	-16.2%	>57
CN(C)c1ncc2nc(-c3cccs3)c(=O)n(-c3ccccc3)c2n1	?	>57
Cc1cc(C)n(-c2nc3sc4c(c3c3nnc(SC(C)C)n23)CC(C)(C)OC4)n1	-13.5%	>57
O=C1[C@@H]2[C@H]3[C@H](O)[C@H](O)C/C(=N/OC[C@@H](O)COCc4ccco4)[C@H]3CC[C@H]2C(=O)N1c1ccc(F)cc1F	8.3%[8 µM]	.
COc1ccc(CNc2nc(-c3ccccc3CN(C)C)nc3ccccc23)c(OC)c1	?	>57
CCCCNC(=O)CS(=O)Cc1nc(-c2ccc(C)cc2)oc1C (stereo not given)	-1.6%	>57
COC(=O)c1[nH]c2cccc(OC)c2c1NC(=O)CN1CCC(C(N)=O)(N2CCCCC2)CC1	?	>57
COc1ccccc1CN1CCCC2(CCN(C(=O)c3ccncc3)CC2)C1	?	>57
COc1cccc(NC(=O)NC2CCN(Cc3nnnn3Cc3ccc(F)cc3)CC2)c1	2.1%	>57
CSc1ccccc1N=CC1=C(O)CC(C)(C)CC1=O	-9.5%	.
COc1ccc(OCC(O)CNC(=O)c2ccc(Br)cc2)cc1 (stereo not given)	-2.4%	>57
O=C(O)CCC(=O)Nc1ccc(-c2nnc(-c3ccco3)o2)cc1	0.8%	>57
O=C(COC(=O)c1ccccc1C(=O)c1ccccc1)c1ccco1	?	>57
O=c1c(-c2ccc(F)cc2)nc2cnc(N3CCOCC3)nc2n1CCc1ccccc1	?	>11.4
CCOC(=O)N1CCN(C(=O)Nc2ccc(Cl)cc2Cl)CC1	-6.8%	>57
CCCCCCN(CCCCCC)C(=O)Cc1c(-c2ccc(F)cc2)[nH]c2ccccc12	?	>57&>57
O=C(Cn1ncc2c1-c1ccccc1OC2)N1CCN(c2ccccn2)CC1	-5.4%	>57
CC[C@H](c1ccc(O)cc1)[C@@H](CC)c1ccc(O)cc1	-3.1%[3.58 µM]	>57
C#CCCCO/N=C1/C[C@@H](O)[C@@H](O)[C@@H]2[C@@H]3C(=O)N(Cc4ccc5c(c4)OCO5)C(=O)[C@H]3CC[C@H]12	-10.7%[8 µM]	.
COc1ccccc1Nc1nc2ccccc2n1C	13.9%	>57
O=C(NCCN1CCN(c2ccccc2F)CC1)C1CCCN(S(=O)(=O)c2cnc[nH]2)C1 (stereo not given)	-6.5%	>57
Cc1ccc(N2CCN(C(=S)c3ccc(N(C)C)cc3)CC2)cc1	-29.2%	>57
c1cncc(C(c2nnnn2C2CCCC2)N2CCN(Cc3ccc4c(c3)OCO4)CC2)c1 (stereo not given)	6.2%	>57
O=C(Cn1c(CO)nc2ccccc21)Nc1cc(C(F)(F)F)ccc1N1CCOCC1	-11.1%	>57
CC(NS(=O)(=O)c1ccc(Br)cc1)C(c1cccs1)N1CCN(C)CC1 (stereo not given)	-9.0%	>57
CCN1CCN(c2oc(-c3ccc(OC)cc3)nc2C#N)CC1	-8.6%	>57
CSSC	-0.7%	.
COc1ccccc1NC(=O)c1ccc(Br)o1	-2.9%	>57
COc1ccccc1NC(=O)c1cn(C)c(=O)c2cc(OC)c(OC)cc12	5.2%	>57
Cc1nc(C)c(C(=O)C2=C(O)C(=O)N(CCN3CCOCC3)C2c2cccs2)s1 (stereo not given)	8.2%	>57
Cc1ccc(NC(=O)C2CC(c3ccc(F)cc3)=NO2)cc1 (stereo not given)	7.9%	>57
CC(=O)c1c(C(C)=O)c(C)n(-c2nc(-c3cccs3)c(C)s2)c1C	?	>57
Nc1nonc1-c1nc2ccccc2n1Cc1ccc(F)cc1	?	>57
COc1cc(C(c2sc3nc(C)nn3c2O)N2CC(C)OC(C)C2)cc(OC)c1OC (stereo not given)	11.5%	>57
CCOc1ccc(N)cc1	-16.9%	.
O=C(O)c1ccc(-n2nnnc2SCc2ccccc2F)cc1	-4.7%	>57
COc1ccccc1N1CCN(C(CNC(=O)Oc2ccccc2)c2cccnc2)CC1 (stereo not given)	9.2%	.
